HCMV NEC inh: inhibitors of HCMV UL50-UL53 interaction, biochemical, HTRF; normalized percent inhibition; AID 1918969, 2023; inhibition, % (no concentration beside the values); 190,000 compounds, 0.15% hits; HCMV UL50-UL53 nuclear egress complex (human cytomegalovirus);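 active = both replicates at 50% or more, plus weaker picks with an unusually low signal ratio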;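 note: stock transfer was 100 nL into about 20 µL; 0% = negative control wells and 100% = wells with untagged competitor protein; inactives centre near -12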
GIV Gai3 FP: inhibitors of GIV peptide binding to Galpha-i3, primary screen, biochemical, fluorescence polarization, FITC-GIV GBA peptide, rat Galphai3; percent of control (FP), % (no concentration beside the values); 90 min; active compounds read low; scaled: aluminum fluoride 0%, vehicle 100%; AID 1224905, 2016; Guanine nucleotide-binding protein G(i) subunit alpha-3 (Rattus norvegicus), P08753; 210,000 compounds, 0.42% hits;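 active = replicate mean at 85% of control or lower, very high polarization wells dropped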;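 note: wells of about 15 µL received 100 nL stock; the first replicate is given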
Target sequence (P08753 whole entry, looked up): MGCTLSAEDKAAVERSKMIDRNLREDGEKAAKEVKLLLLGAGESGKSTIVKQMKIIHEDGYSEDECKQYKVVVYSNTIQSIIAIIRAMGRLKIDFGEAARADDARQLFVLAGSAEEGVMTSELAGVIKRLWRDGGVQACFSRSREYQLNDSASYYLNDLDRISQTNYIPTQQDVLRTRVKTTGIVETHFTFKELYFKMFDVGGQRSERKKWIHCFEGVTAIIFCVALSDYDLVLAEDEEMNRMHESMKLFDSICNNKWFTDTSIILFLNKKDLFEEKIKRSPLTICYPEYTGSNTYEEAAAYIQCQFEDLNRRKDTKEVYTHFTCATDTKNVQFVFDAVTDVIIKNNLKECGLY
Sa growth 42C: S. aureus growth inhibition at 42 and 30 °C, primary screen, LtaS inhibitor project, RN4220, two temperatures; OD600, 20 h, 42 °C; active compounds read low; relative growth, % (no concentration beside the values); 170,000 compounds, 0.53% hits; AID 720641, 2013;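 active = growth at 42 °C up to 50% and 20 or more points under that at 30 °C, or under 10% at both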;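 note: 300 nL library stock went into each well; scaled to the means of positive and negative controls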
Sa growth 42C second temp: recorded beside Sa growth 42C, whose call it bears; relative growth, %; measured here: growth at 30 °C;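 optical density after 20 h as mean of two plates; 100% = untreated growth and lower means inhibition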
* = called active by the depositor; nt = no result given; & = joins results of further samples. Hits appear at their usual frequency; 0.79% or so of the library scored in one or more.

SMILES	HCMV NEC inh	GIV Gai3 FP	Sa growth 42C	Sa growth 42C second temp
CC(=O)Nc1nonc1-c1nnc(SCC(=O)Nc2ccccc2)n1-c1ccccc1	-28	97	103	77
CC(C)(C)c1ccc(/C=C2\CCCC(=C3SCCCS3)C2=O)c2c1OCO2	-21	nt	87	73
CC(C)C[C@H](NC(=O)[C@@H](COC(C)(C)C)NC(=O)[C@H](Cc1ccc(O)cc1)NC(=O)[C@H](CO)NC(=O)[C@H](Cc1c[nH]c2ccccc12)NC(=O)[C@H](Cc1cnc[nH]1)NC(=O)[C@@H]1CCC(=O)N1)C(=O)N[C@@H](CCCN=C(N)N)C(=O)N1CCC[C@H]1C(=O)NNC(N)=O	-31	98	93	82
Cc1ccc(-c2nc(CS(=O)CC(=O)N3CCN(c4cccc(Cl)c4)CC3)c(C)o2)cc1 (stereo unspecified)	-9	111	70	37
O=C1CN(C(=O)CCCOc2cccc(Br)c2)c2ccccc2N1	-10	nt	95	91
COc1ccc(NC(=O)c2ccc(CN3CCS(=O)(=O)CC3)cc2)cc1	-1	108	106	84
O=C(Nc1nc(-c2ccc(S(=O)(=O)N3CCCC3)cc2)cs1)c1cccs1	-13	102	109	79
CN1CCN(c2ccc(CNS(=O)(=O)c3cn(C)cn3)cc2)CC1	-8	107	107	98
O=C(Cn1cnnn1)N(Cc1ccco1)Cc1cccs1	-10	nt	93	96
CCOC(=O)c1cc2n(n1)CC(C)(C(=O)NC1CCCC1)N(c1ccc(F)cc1F)C2=O (stereo unspecified)	-2	94	nt	nt
O=C1c2cccnc2C(=O)N1CCc1ccc(S(=O)(=O)N2CCCc3ccccc32)cc1	-27	100	107	92
N#CC(c1ccc(Cl)cc1)(c1ncc(C(F)(F)F)cc1Cl)N1CCOCC1 (stereo unspecified)	-8	102	nt	nt
CCCCNC(=O)CCCn1c(=O)c2ccccc2n(Cc2c(C)cc(C)cc2C)c1=O	1	98	93	89
Cc1ccc(NC(=O)CSCc2cc(=O)n3ccccc3n2)cc1	-38	105	nt	nt
CN(CCN1C(=O)c2cc3occc3n2CC1(C)C(=O)NC1CCCCC1)C1CCCCC1 (stereo unspecified)	-13	99	nt	nt
Cc1nc2ccccc2n(CC(=O)Nc2ccc(F)cc2F)c1=O	-39	105	nt	nt
CCCOc1ccc(C(=O)N(Cc2ccco2)Cc2ccco2)cc1	-7	105	95	57
CCn1c(CN(c2ccc(F)cc2)S(C)(=O)=O)nnc1SCC(=O)c1cc(C)n(C)c1C	-16	98	nt	nt
Cc1cc(O)c(C(c2ccccc2Cl)N2CCN(c3ccccc3)CC2)c(=O)n1Cc1ccco1 (stereo unspecified)	nt	100	105	88
Cc1ccc(-n2c(SCC(=O)Nc3ccc4c(c3)OCO4)nc3c([nH]c4ccccc43)c2=O)cc1	nt	102	120	106
Cc1ccc2nc(C(=O)O)cc(Nc3ccc(C)c(Cl)c3)c2c1	-22	102	nt	nt
COc1ccc(S(=O)(=O)c2c(O)c3ccc(C(=O)NCc4ccc(F)cc4)cc3[nH]c2=O)cc1	nt	104	106	98
CCCCCn1cc2c(c1-c1ccccc1Br)c(=O)n(C)c(=O)n2C	-32	105	102	67
COC(CNC(=O)c1cc2c(=O)[nH]c3ccc(C)cc3c2s1)OC	nt	109	87	88
COc1ccc(OC)c(C(=O)CSc2ncc3c(n2)-c2ccccc2N(Cc2ccccc2)S3(=O)=O)c1	-25	106	nt	nt
COc1cccc(OC)c1C(=O)Nc1cccc(-c2nc3cccnc3s2)c1	-7	108	nt	nt
Cc1ccc(CNC(=O)c2cn(C)c3ccc(S(=O)(=O)N(C)C)cc3c2=O)cc1	-13	105	108	93
CS(=O)(=O)Nc1ccc(C(=O)NCCc2ccccc2)cc1	6	103	101	98
CN(CC1COc2ccccc2O1)C(=O)C1CCN(c2ccc(-c3cccs3)nn2)CC1 (stereo unspecified)	18	98	103	108
O=c1cc(N2CCN(S(=O)(=O)c3cc(F)ccc3F)CC2)nc2sc(-c3ccccc3)nn12	12	101	nt	nt

Next section; the last five above are carried over.
SMILES	HCMV NEC inh	GIV Gai3 FP	Sa growth 42C	Sa growth 42C second temp
COc1cccc(OC)c1C(=O)Nc1cccc(-c2nc3cccnc3s2)c1	-7	108	nt	nt
Cc1ccc(CNC(=O)c2cn(C)c3ccc(S(=O)(=O)N(C)C)cc3c2=O)cc1	-13	105	108	93
CS(=O)(=O)Nc1ccc(C(=O)NCCc2ccccc2)cc1	6	103	101	98
CN(CC1COc2ccccc2O1)C(=O)C1CCN(c2ccc(-c3cccs3)nn2)CC1 (stereo unspecified)	18	98	103	108
O=c1cc(N2CCN(S(=O)(=O)c3cc(F)ccc3F)CC2)nc2sc(-c3ccccc3)nn12	12	101	nt	nt
CC(C)C(=O)Oc1cc(-c2ccccc2)c2oc(=O)sc2c1	nt	102	98	88
Cc1ccc(C(=O)NN2C(=O)CSC2=S)cc1	-10	101	82	70
O/N=C\c1ccc(-c2ccc(Cl)cc2)o1	-20	106	61	111
Cc1ccc(C)c(S(=O)(=O)Nc2ccc3nc(N4CCN(C)CC4)cc(C(=O)O)c3c2)c1	-5	103	nt	nt
CCc1ccc(NC(=O)C2CCCN2S(=O)(=O)c2ccc3c(c2)C(C)(C)C(=O)N3C)cc1 (stereo unspecified)	nt	103	90	79
O=C1NC(=Nc2ccccc2)S/C1=C/C=C/c1ccco1	15	126	82	41
CCC(Sc1nnc(-c2ccc(F)cc2)c(-c2ccc(F)cc2)n1)C(=O)NC1CCCC1 (stereo unspecified)	nt	102	99	85
CCOC(=O)c1cc(-c2ccc(Cl)cc2)no1	-15	99	106	91
O=C(NN1C(=O)c2ccccc2NC1c1ccccn1)c1ccccc1 (stereo unspecified)	nt	109	95	84
O=C(CSc1nnc(-c2ccccc2)n1Cc1ccco1)c1ccc2c(c1)OCO2	-9	nt	80	88
Cc1cc2c(=O)[nH]nc(N)c2c(Sc2ccc(Cl)cc2)n1	3	102	116	57
Fc1ccc(-c2ccc(CNCc3cccs3)o2)cc1	-1	99	nt	nt
Cc1ccc2c(c1)NC(C1=NS(=O)(=O)c3ccc(C)cc3N1)=NS2(=O)=O	-5&-29	107&97	101	95
COCCn1c(C)cc(C(=O)COC(=O)CCc2nc3ccccc3s2)c1C	-22	nt	118	83
CC(C)(C)c1ccc(S(=O)(=O)Nc2noc3ccccc23)cc1	-1	99	nt	nt

Three entries from above, with values under each structure:
Values run as follows: HCMV NEC inh	GIV Gai3 FP	Sa growth 42C	Sa growth 42C second temp
- O=C(Nc1nc(-c2ccc(S(=O)(=O)N3CCCC3)cc2)cs1)c1cccs1
    -13	102	109	79
- O=C(CSc1nnc(-c2ccccc2)n1Cc1ccco1)c1ccc2c(c1)OCO2
    -9	nt	80	88
- COC(CNC(=O)c1cc2c(=O)[nH]c3ccc(C)cc3c2s1)OC
    nt	109	87	88

Further results follow:
SMILES	HCMV NEC inh	GIV Gai3 FP	Sa growth 42C	Sa growth 42C second temp
COc1nc(OCC#N)nc(N(C)C)n1	3	104	96	85
CC(Oc1ccc(Cl)cc1Cl)C(=O)Nc1nc2c(s1)C(=O)CC(C)(C)C2 (stereo unspecified)	nt	100	112	83
O=C(CSc1n[nH]c(=O)n1-c1ccccc1)Nc1ccccc1	-5	106	114	83
CC(C)Cc1nc(CNC(=O)CC2CCCC2)no1	6	97	nt	nt
CCOc1ccc(NC(=O)c2cc(C)nc3c2c(C)nn3-c2ccc(C)cc2)cc1	nt	109	108	103
O=C(CSc1nnc(Nc2ccccc2F)s1)Nc1ccc2c(c1)OCCCO2	3	nt	80	74
O=C(NCC(O)c1ccccc1)c1ccco1 (stereo unspecified)	-16	99	91	84
Cc1ccc(C)c(CNC(=O)CCn2cccn2)c1	nt	104	110	94
CCOC(=O)N1CCc2c(sc3c2C(=O)NC(c2ccc(C(=O)OC)cc2)N3)C1 (stereo unspecified)	-52	96	82	88
O=C(Nc1ccc2c(c1)OCO2)C1CCCN(c2ccnc(-c3ccccc3)n2)C1 (stereo unspecified)	1	99	nt	nt
Cn1c(=O)c2sccc2n2c(CCCC(=O)NCCc3c[nH]c4ccccc34)nnc12	-5	108	nt	nt
CCOC(=O)c1sc(SC)c2c1CCc1cnc(SC)nc1-2	-30	105	89	86
C/C(NNc1ccccc1)=C(/C#N)C(N)=S	-23	107	79	85
FC(F)(F)COCC(F)(F)F	-6	nt	99	94
COc1ccc(CCNC(=O)Cc2c(C)c3cc4c(C(C)(C)C)coc4c(C)c3oc2=O)cc1	0	106	106	88
Cc1cc(C)cc(OCC(=O)Nc2nc3c(s2)CC(C(C)(C)C)CC3)c1 (stereo unspecified)	5	103	85	68
CC(C)(C)c1ccc(S(=O)(=O)N2CCC(c3ccncc3)CC2)cc1	nt	99&102	106	100
O=S(=O)(c1ccc(-c2cc(C(F)(F)F)on2)s1)N1CCN(c2ccc(F)cc2)CC1	nt	112	104	103
Cc1ccc(Cn2c(C(=O)O)c(CNCCc3ccco3)c3ccc(C)cc32)cc1	nt	106	109	87
COc1ccc(C2SCCN2C(=O)c2cc3ccccc3oc2=O)cc1[N+](=O)[O-] (stereo unspecified)	-31	105	nt	nt
O=C1OCCC1Sc1nc2ccccc2n1Cc1ccccc1 (stereo unspecified)	-8	99	109	78
Cc1ccc(NC2=Nc3ccccc3CS2)cc1	-14	nt	77	90
OCc1cc(Br)cc(CO)c1O	-36	nt	73	82
Fc1ccc(-c2[nH]ncc2CN2CCN(c3ccc(F)cc3)CC2)cc1	-9	101	99	95
NC(=O)COc1ccc2oc3ccccc3c2c1	2	nt	113	104
O=C(CNS(=O)(=O)c1ccccc1)OCc1csc(-c2ccccc2)n1	-17	nt	91	94
COc1ccc(OCC(O)Cn2c(N3CCNCC3)nc3c2c(=O)n(C)c(=O)n3C)cc1 (stereo unspecified)	-17	99	nt	nt
Cc1nc(N2CCCC2)ncc1S(=O)(=O)c1ccc(Cl)cc1	-12	102	86	90
O=C1c2ccccc2NS(=O)(=O)N1Cc1ccccc1	-22	105	97	81
O=C(CCN1C(=O)S/C(=C\c2cccs2)C1=O)NCc1ccco1	-33	nt	73	97
COC(=O)c1cc(S(=O)(=O)NCC2CCN(Cc3ccccc3F)CC2)c[nH]1	nt	111	95	92
O=C(c1ccco1)N1CCC2(CC1)OCCO2	8	102	108	108
COc1ccccc1-c1cc2nc(C)c(CCC(=O)NCCc3cccc(C)c3)c(C)n2n1	-25	100	101	96
CCOc1ccc(CCNC(=O)CCCc2nnc3n(CCCOC)c(=O)c4sccc4n23)cc1	nt	107	114	90
Cc1cc(-c2ccccc2)nc2cc(-c3nc(-c4ccc5c(c4)OCO5)no3)nn12	2	101	nt	nt
CCn1ncc(Br)c1C(=O)Nc1nccs1	-8	104	110	96
CCOC(=O)c1cnn(Cc2ccccc2)c1N	-42	98	79	75
Cc1cccc(N2CCN(S(=O)(=O)c3csc(C(N)=O)c3)CC2)c1C	nt	105	113	80
Cn1cccc1C(=O)C(F)(F)F	-23	nt	87	91
Cc1oc(C(C)(C)C)cc1C(=O)NC1CCN(Cc2ccccc2)CC1	-18	104	95	91
Cc1cc(C)cc(NC(=O)CCCC(=O)Nc2cc(C)cc(C)c2)c1	4	nt	103	103
CCOC(=O)c1ccc(NC(=O)CSc2nc(C)c(Cc3ccccc3)c(=O)[nH]2)cc1	-6	103	121	90
O=C(NCCc1ccccc1)c1ccc(CS(=O)Cc2cccc(Cl)c2)o1 (stereo unspecified)	-1	105	86	96
Cc1cc(C)nc(NS(=O)(=O)c2ccc(NC(=O)c3ccccc3C(=O)O)cc2)n1	-8	103	nt	nt
CCOC(=O)c1oc2cc(OC)c(CC)cc2c(=O)c1-c1csc(-c2ccccc2)n1	2	105	nt	nt
O=C(Cc1cc(F)cc(F)c1)n1nccc1-c1cccs1	-9	101	118	99
CCOC(=O)C1=C(CS(=O)(=O)c2ccc(F)cc2)NC(=O)NC1c1ccc(OCC)c(OC)c1 (stereo unspecified)	14	104	91	95
Cc1ccccc1NC(=O)C1COc2ccccc2O1 (stereo unspecified)	-1	108	nt	nt
CCOC(=O)c1c(NC(=O)C2COc3ccccc3O2)sc2c1CCCC2 (stereo unspecified)	-20	101	nt	nt
O=C(O)C1C2C=CC3(CN(C4CCCC4)C(=O)C13)O2 (stereo unspecified)	6	102	100	99
COc1ccc(OC)c(Nc2nc(Nc3ccccc3)c3cnn(C)c3n2)c1	-10	107	nt	nt
Cc1ccc(N2C(=O)C3C4C=CC(CNC(=S)NCc5ccccc5)(O4)C3C2=O)cc1 (stereo unspecified)	nt	99	78	83
Cc1[nH]c2ccccc2c1C(=O)CSc1ncnc2ccccc12	-4	nt	100	81
CCn1c(=O)c2ccccc2c2c(O)nc(-c3ccccc3)n21	-4	nt	81	97
Nc1nc(N)c(S(=O)(=O)c2ccccc2)c(Nc2ccccc2)n1	-5	106	73	88
O=C1CCCc2ccccc2N1Cc1ccccc1	6	108	nt	nt
COc1ccc(C(=O)/C=C/c2cn(CC(O)CN(CC(C)C)CC(C)C)c3ccccc23)cc1OC (stereo unspecified)	9	191	78	79
COc1cc(OC)c(C(=O)N2CCCN(C)CC2)cc1OC	-31	102	107	99
